HNF4A DNA FP – change in binding of human HNF4 alpha to DNA; activity change, % at 10 µM; 360,000 compounds, 0.3% hits; HNF4a-FITC DNA binding, fluorescence polarization, 1 h; P41235; AID 1224865; in the data active = activity change above about 30%, passing the limit was not always enough;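 also: controls were the assay level and a saturating level of protein; the project sought stronger binding though the title names inhibitors; some compounds called inactive have numbers as strong as hits; positive values seem to mean higher polarization but the record does not say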
RanGTP-Imp inh – inhibitors of RanGTP-importin-beta interaction, primary screen, biochemical, FRET, CFP-Ran, YFP-importin-beta, homogeneous. cell-free CFP-Ran/YFP-importin-beta FRET ratio. 300,000 compounds, 1.1% hits. inhibition, % (concentration not given with the values);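 active = most replicates above 15%; inconclusive = exactly half above 15%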;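 also: 0% = DMSO wells and 100% = Ran loaded with GDP instead of GTP; wells of about 40 µL received 100 nL stock; the first replicate is given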
LANA-H2A inh – blocks KSHV LANA binding to histone H2A/H2B | Q9QR71 | cell-free LANA-H2A/H2B peptide, fluorescence polarization | inhibition, % (test concentration not listed) | 320,000 compounds, 0.6% hits; in the data active = inhibition mostly above about 10%, no sharp cut-off; inactive = mostly below about 6.7%;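 also: stock transfer was 7.5 nL into about 10 µL; 0% = median of vehicle wells and 100% = median of positive control wells; one replicate is shown; the record names a cut of 25% in any replicate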
Target sequence (Q9QR71 whole entry, looked up): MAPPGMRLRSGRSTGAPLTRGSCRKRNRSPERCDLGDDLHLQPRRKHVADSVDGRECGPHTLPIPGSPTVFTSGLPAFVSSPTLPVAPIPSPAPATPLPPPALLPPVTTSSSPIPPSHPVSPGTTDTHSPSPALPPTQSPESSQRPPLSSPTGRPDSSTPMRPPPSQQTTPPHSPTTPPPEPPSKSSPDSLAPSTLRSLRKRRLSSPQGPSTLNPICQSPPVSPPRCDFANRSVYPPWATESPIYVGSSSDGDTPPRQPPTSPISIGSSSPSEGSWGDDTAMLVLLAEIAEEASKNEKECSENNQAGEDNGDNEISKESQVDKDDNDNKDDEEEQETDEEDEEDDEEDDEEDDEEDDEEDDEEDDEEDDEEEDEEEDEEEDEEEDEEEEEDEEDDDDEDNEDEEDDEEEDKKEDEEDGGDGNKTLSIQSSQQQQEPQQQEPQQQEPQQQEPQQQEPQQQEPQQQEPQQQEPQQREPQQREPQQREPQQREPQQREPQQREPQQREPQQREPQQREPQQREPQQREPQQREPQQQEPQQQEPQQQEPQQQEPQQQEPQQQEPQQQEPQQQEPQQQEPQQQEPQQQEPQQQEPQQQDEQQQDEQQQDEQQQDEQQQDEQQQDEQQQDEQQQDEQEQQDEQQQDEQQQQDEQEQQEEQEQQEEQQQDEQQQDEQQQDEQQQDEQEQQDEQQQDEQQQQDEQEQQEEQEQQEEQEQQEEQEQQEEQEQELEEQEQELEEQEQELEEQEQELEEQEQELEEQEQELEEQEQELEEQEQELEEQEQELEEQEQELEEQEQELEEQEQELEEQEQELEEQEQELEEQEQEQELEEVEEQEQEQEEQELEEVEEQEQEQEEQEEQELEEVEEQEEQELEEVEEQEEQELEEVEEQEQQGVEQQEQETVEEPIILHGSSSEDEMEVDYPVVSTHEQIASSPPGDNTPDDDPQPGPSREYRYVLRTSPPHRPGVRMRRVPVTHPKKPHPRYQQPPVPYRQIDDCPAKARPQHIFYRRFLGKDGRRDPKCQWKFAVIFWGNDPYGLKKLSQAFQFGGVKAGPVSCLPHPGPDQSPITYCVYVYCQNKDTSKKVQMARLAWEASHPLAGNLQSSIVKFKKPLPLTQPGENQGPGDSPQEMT
B2AR ag – human beta-2 adrenergic receptor agonism by FAP. P07550. Am2.2-beta2AR cells, FAP receptor internalization, flow cytometry; reference of the scale not given here. response, % (test concentration not listed). 340,000 compounds, 0.43% hits. AID 504454;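 active = response above a set limit, near 3 SD of response in nonfluorescent compounds, cut at about 42% in these data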;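 also: stock transfer was 100 nL into about 11 µL; a reference agonist was the positive control; negative values mostly stem from fluorescent compounds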
Calb FLC – C. albicans growth modulation with fluconazole; C. albicans CaCi-2 (fluconazole-resistant clinical isolate) + fluconazole, Alamar Blue growth, 48 h; 300,000 compounds, 0.57% hits; growth inhibition, % (concentration not given with the values); AID 1979;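 active = most replicates above 75%; inconclusive = exactly half above 75%; inactive = most below 75%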;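 also: all wells also contain fluconazole at 8 µg/ml as a sub-toxic cotreatment; 0% = median of DMSO wells and 100% = median of geldanamycin control wells; wells of about 8 µL received 7.5 nL stock; the first replicate is given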
ALR H2O2 inh – human ALR oxidase inhibition via reduced H2O2; P55789; purified ALR, DTT oxidation, H2O2 HRP-luminol luminescence; inhibition, % (concentration not given with the values); 290,000 compounds, 3.8% hits; AID 485317;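 active = mean and each replicate at 75% or more; inconclusive = only one of the two met; inactive = neither met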;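 also: stock transfer was 7.5 nL into about 7.5 µL; 0% = neutral wells and 100% = wells with inactivated enzyme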
Vif A3G – HIV-1 Vif–A3G interaction blockers – biochemical, TR-FRET, GST-Vif 1-94, biotin-A3G peptide, dose response retest, primary screen (AID 1117319); TR-FRET GST-Vif / biotin-A3G peptide binding; higher % means a stronger effect; test concentration not given here; strong numbers were not always called active; inhibition, %; hits with a dose series show IC50 in µM; 260,000 compounds, 0.57% hits;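 active = above the screen mean plus three standard deviations and confirmed in dose response; inconclusive = results disagree or hit not tested in dose response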;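 also: Vif residues 1-94 fused to GST binding biotinylated APOBEC3G peptide 110-148; 0% = full assay without inhibitor and 100% = GST in place of GST-Vif; retest series ran down from 100 µM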
Starred values were filed as active, the others as inactive; ? = inconclusive; . = no result given; & = joins results of further samples.

SMILES	HNF4A DNA FP	RanGTP-Imp inh	LANA-H2A inh	B2AR ag	Calb FLC	ALR H2O2 inh	Vif A3G
CCc1nn(C(C)C(=O)NCCc2ccccc2)c(=O)c2cc3occc3n12 (stereo not given)	-2.4	6.7	-3.2	8	-17	0	9%
O=C(NCCNCc1ccccn1)c1ccco1	1.1	3.1	-1.6	-6	22	-8	?
CCCCCOC(=O)Nc1ccc(S(=O)(=O)Nc2cccc([N+](=O)[O-])c2)cc1	-0.8	-4.9	0.4	2	6	-3	.
COc1ccc(N2C(=S)NC(C)(C)CC2(C)c2ccc(OC(C)=O)cc2OC(C)=O)cc1 (stereo not given)	4.6	-2.0	1.1	0	13	5	-5%
CC(C)CC(=O)NS(=O)(=O)c1ccc(NC(=O)c2ccco2)cc1	1.5	1.9	0.0	1	2	-12	.
COc1ccccc1NC(=O)CC1SC(=N)N(c2ccccc2)C1=O (stereo not given)	0.6	1.9	6.3	6	5	-4	7%
O=C(NCc1ccccc1Cl)c1cc2c(s1)CS(=O)(=O)C2	7.1	3.6	1.9	-2	6	-6	.
CC(C)c1ccc(/C=N/NC(=O)c2cc(-c3cccc([N+](=O)[O-])c3)n[nH]2)cc1	-2.0	0.5	-0.5	3	10	0	?
COc1ccc(CNC(=O)C(C#N)c2nc3ccccc3nc2N2CCN(C)CC2)cc1 (stereo not given)	4.1	-5.4	-2.4	-7	-37	39	8%
CC(NC(=O)c1ccco1)c1nc(-c2ccccc2)no1 (stereo not given)	2.5	0.1	-4.7	-7	-7	.	.
CCc1ccc(NC(=O)N(CCOC)C2CCN(C(C)=O)CC2)cc1	-0.9	4.7	-1.0	3	-6	-4	?
COC(=O)c1ccc2c(c1)C(C)(C)C(/C=C/c1ccc(OC)c(OC)c1OC)=[N+]2C	1.8	0.9	-6.5	57*	-1	39	?
C[n+]1ccccc1Nc1cc([N+](=O)[O-])ccc1N	-2.8	-4.3	9.1	-2	7	.	.
CCC(CC)NC(=O)COn1nnc2ccc(S(=O)(=O)N3CCOCC3)cc21	12	3.4	0.1	-1	6	-2	-8%
O=C(c1ccccc1)N1CCN(CC(O)Cn2ccc3ccccc32)CC1 (stereo not given)	4.2	2.2	3.3	2	3	-10	.
CCOC(=O)C1=C(C)NC(C)=C(C(=O)OCC)C1C(=O)OCC(=O)NCc1ccc(F)cc1	4.1	.	-1.9	41	.	.	.
C=CCc1cccc2cc(NC(C)=O)c(=O)oc12	0.6	4.0	0.4	-10	-4	-9	5%
COc1ccccc1NS(=O)(=O)c1ccc(C(=O)NCc2ccco2)cc1	-1.4	.	-4.0	3	.	-3	.
Cc1occc1C(=O)NC1CCCc2ccccc21 (stereo not given)	-1.6	?	0.5	11	-20	-6	1%
CC(=O)c1csc(-c2ccccc2)n1	0.9	-0.8	-2.8	1	-4	.	.
CC(C(=O)N1CCCCCC1)N(c1ccc(Cl)cc1)S(C)(=O)=O (stereo not given)	-1.6	2.5	1.0	3	-13	-15	.
Cn1c(C(=O)NCc2ccc3c(c2)OCO3)cc2sccc21	1.7	2.1	-2.0	1	-5	-2	6%
CC(=O)Oc1ccc(-c2ccc(C(=O)OCC(=O)N(C)CC(=O)Nc3ccccc3Cl)cc2)cc1	-1.1	-4.5	0.5	4	-15	3	.
O=[N+]([O-])c1ccc(S(=O)(=O)Nc2ncccn2)cc1	4.1	4.3	3.5	13	-6	1	13%

Whole records as entered above:
C[n+]1ccccc1Nc1cc([N+](=O)[O-])ccc1N as listed: HNF4A DNA FP: -2.8; RanGTP-Imp inh: -4.3; LANA-H2A inh: 9.1; B2AR ag: -2; Calb FLC: 7; ALR H2O2 inh: .; Vif A3G: .
COc1ccccc1NS(=O)(=O)c1ccc(C(=O)NCc2ccco2)cc1 as listed: HNF4A DNA FP: -1.4; RanGTP-Imp inh: .; LANA-H2A inh: -4.0; B2AR ag: 3; Calb FLC: .; ALR H2O2 inh: -3; Vif A3G: .

New compounds follow.
SMILES	HNF4A DNA FP	RanGTP-Imp inh	LANA-H2A inh	B2AR ag	Calb FLC	ALR H2O2 inh	Vif A3G
CCCCOC(=O)c1cc(C)nc2ccc(Br)cc12	0.4	-1.7	-8.7	4	-63	.	11%
O=C(c1ccc(-c2cccc(Cl)c2)o1)N1CCN(c2ccc([N+](=O)[O-])cc2)CC1	-2.2	?	4.8	-7	17	3	.
COc1ccc(NC(=O)CN(C)C(=O)CNC(=O)c2ccc3c(c2)OCO3)cc1	-1.6	-1.1	-1.8	-2	.	-3	2%
CCOC(=O)C1=C(C)Nc2sc(C(=O)c3ccc(OC)cc3)c(N)c2C1c1ccc(C(=O)OC)cc1 (stereo not given)	11	-101	2.0	9	13	3	-16%
CC(=O)OCCN1C(=O)c2cccc3cc([N+](=O)[O-])cc(c23)C1=O	.	3.9	1.5	.	9	-7	.
CC/C(C)=N\NC(=O)CNC(=O)c1ccc(Cl)cc1Cl	0.7	0.1	-5.2	3	-6	10	1%
O=C(N=Nc1c(O)[nH]c2ccccc12)c1ccccc1NS(=O)(=O)c1cccs1	-0.6	-1.7	1.1	-4	5	-1	?
CCN(CC)CCNC(=O)CCn1c(=S)[nH]c2cc3c(cc2c1=O)OCO3	2.8	-0.5	-1.7	-7	-7	75	88%
O=C(NCC(c1cccs1)N1CCOCC1)c1cn(-c2ccccc2)nc1-c1ccc(Cl)cc1 (stereo not given)	11	4.9	1.3	18	-1	9	-14%
Brc1ccc2ncnc(NCc3ccco3)c2c1	3.0	3.8	7.4	-3	8	4	14%
CCOC(=O)C(C)C(C)=O (stereo not given)	4.2	.	15*	-4	.	-6	.
COc1ccccc1CNS(=O)(=O)CC12CCC(CC1=O)C2(C)C (stereo not given)	-2.6	1.0	8.8	-5	-1	-8	.
Cc1cc2c(NCc3ccccc3)ncnc2s1	-1.4	0.6	0.3	-5	1	-5	-8%
Cn1cnc([N+](=O)[O-])c1SCC(=O)NN	-4.1	?	3.7	-2	0	88*	.
O=C(C1COc2ccccc2O1)N1CCN(c2ccccc2)CC1 (stereo not given)	1.0	-1.1	-1.4	6	-3	5	23%
CCOC(=O)CSc1ncnc2c1cnn2-c1ccc(C)cc1	0.5	3.8	-4.3	1	14	-1	85%
Cc1ccccc1OCC(O)Cn1c(NCc2ccccc2)nc2c1c(=O)[nH]c(=O)n2C (stereo not given)	-1.8	-1.2	3.0	4	4	-2	-3%
Cc1ccc(S(=O)(=O)N(Cc2ccc(F)cc2)C(=O)N2CCN(C)CC2)cc1	3.3	-3.4	-0.7	1	13	5	5%
C=C(C)CN1C(=O)C2(OCCO2)c2ccccc21	-0.2	2.9	3.0	0	2	45	-2%
COc1cccc(C(=O)Oc2c(Br)cc(Br)cc2/C=N/NC(=O)c2cc(C)[nH]n2)c1	-1.6	-11	-0.1	5	-7	-5	.
CCCc1nc2sc3c(SCC(=O)NCc4ccco4)ncnc3c2c2c1CCC2	-32	-0.8	-3.5	-3	-12	22	?
Cc1ccc(S(=O)(=O)N2CCN(C(=O)C(C)Cn3nc(C)c(C)c3C)CC2)cc1 (stereo not given)	5.6	-2.5	0.7	10	-3	1	8%
CC(C)c1ccc(NC(=O)CCC(=O)NCc2ccco2)cc1	-1.1	2.5	2.8	-2	-3	44	-5%
CCCc1nnc(NC(=O)CCC(=O)N2CCCCC2)s1	2.2	0.6	-1.8	-5	-6	-5	4%
O=C(O)c1cccc2c1C(=O)c1ccc(-c3ccc(OC(F)(F)F)cc3)cc1S2(=O)=O	-1.7	.	-2.6	4	.	17	.
O=C(CCS(=O)(=O)c1ccc(Cl)cc1)Nc1nc(-c2ccncc2)cs1	0.7	2.9	1.3	10	85*	0	.
Cc1cn2c(N)c(/C=C3\C=Nc4ccccc43)c(=O)nc2s1	5.5	3.4	-15	-6	17	0	.
C=CCNC(=O)c1oc2ccc(S(=O)(=O)N3CCCCC3)cc2c1C	4.6	2.2	-2.2	3	4	-4	.
COc1cc(OC)cc(C(=O)NC(=S)Nc2ccc3c4c(cccc24)CC3)c1	11	7.4	-5.3	-8	23	-12	0%
CCn1c(SCc2nc3ccccc3[nH]2)nnc1-c1cnccn1	1.9	-2.7	1.2	20	26	-1	5%
CCCCn1c(N)c(N(CC(C)C)C(=O)C2=NN(c3cc(C)ccc3C)C(=O)CC2)c(=O)[nH]c1=O	-1.8	9.9	0.0	8	-5	-3	23%
Cc1cc(Cl)c(C)c(S(=O)(=O)Oc2ccccc2NC(=O)CCC(=O)O)c1Cl	1.8	.	-7.1	3	.	1	-15%
COc1ccc(OC)c(NC(=S)NCCCN2CCOCC2)c1	-4.6	-6.6	-12	3	-2	.	.
Cc1nc(N)nc(-c2ccccc2O)n1	-4.5	8.5	-1.6	2	-16	-5	1%
COc1ccc(-c2noc(CN(C)C(=O)c3ccco3)n2)cc1	-1.0	0.8	-8.1	5	0	-2	.
Cc1ccc(SCCC(=O)NCc2ccco2)cc1	-2.2	3.3	-5.9	3	-8	-7	2%
CC(=O)Nc1ccc(C2C(=O)c3ccccc3C2=O)cc1	2.6	1.5	1.3	7	8	-9	15%
Cc1cc(C)nc(SCCn2c(N(C)Cc3ccccc3)nc3c2c(=O)n(C)c(=O)n3C)n1	2.9	3.5	-0.6	-22	8	-1	2%
COc1ccc(NS(=O)(=O)c2cc(C)ccc2NC(=O)c2cc(C)oc2C)cc1	2.3	-3.0	-4.3	23	9	0	3%&2%
CN(C(=S)Nc1ccc(Oc2ccccc2)cc1)c1ccc(O)cc1	-0.9	2.3	-0.5	-13	-7	7	.
CCN(C(=O)COC(=O)Cn1c(C)csc1=O)c1c(N)n(Cc2ccccc2)c(=O)[nH]c1=O	1.4	-5.2	0.8	4	5	1	-5%
Cc1ccc(C(CC(=O)O)Nc2nc(N3CCOCC3)nc(N3CCOCC3)n2)cc1 (stereo not given)	1.4	0.9	7.1	1	-12	-6	2%
CC1=NCCN1CCNC(=O)Nc1ccc(F)cc1	-1.1	2.3	-2.6	-7	4	-8	.
CC1CCCCC1NC(=O)C1CCN(S(=O)(=O)N2CCOCC2)CC1 (stereo not given)	3.0	6.5	26*	6	-4	-14	2%
Cc1cc(F)ccc1NCc1ccncc1	8.3	-2.7	2.1	4	-1	67	12%
CC(c1ccco1)N(C(=O)C12CC3(C)CC(C)(CC(C)(C3)C1)C2)c1ccccn1 (stereo not given)	-2.5	-4.2	-2.2	2	4	-17	-1%
COc1ccc(NC(=O)Cc2c[nH]c3ccccc23)cc1S(=O)(=O)N1CCCCC1	2.4	6.6	1.3	1	11	-2	?
CC12CC3OC3CC1CCC1C2CCC2(C)C1CCC21OCCO1 (stereo not given)	0.5	.	.	76*	.	.	-2%
Cc1nn(Cc2ccc(F)cc2)c2sc(C(=O)Nc3nccs3)cc12	3.9	1.5	-3.7	-17	0	-1	-47%
Cc1sc(NC(=O)C2CCCC2)c(C#N)c1C	-0.8	2.0	-0.5	-12	22	11	4%
O=C(CSc1nnc(-c2cccnc2)n1CCc1ccccc1)N1CCCCC1	-1.4	2.8	2.8	-10	-9	3	2%
COc1ccc(CCC(=O)NCc2cn3ccsc3n2)cc1	-2.4	-4.2	-1.0	-7	13	-1	.
CCN(CC(=O)Nc1c(F)cccc1F)C(=O)CCCc1nc2ccccc2c(=O)[nH]1	3.7	6.5	9.7*	-4	.	-6	.
O=C(O)C1=C[C@@H](C2CC2)C[C@@H](OCCCCO)O1	4.1	-1.4	-1.4	-6	-7	-8	.
S=c1[nH]nc(-c2ccco2)n1/N=C/c1ccccn1	.	9.4	6.2	.	-16	98*	0%
O=C(Nc1ccc(NC(=O)c2cccs2)cc1)c1ccccc1	-3.0	4.6	2.5	-10	-4	-1	-9%
